CapD inh: blocks the Bacillus anthracis CapD enzyme | purified CapD enzyme, fluorescence intensity read-out; stronger effect = lower value; some hits fall short of the stated cut | z-score (no concentration beside the values) | 140,000 compounds, 0.23% hits | AID 492967;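 active = z-score under -4 in either of two replicates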;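 note: stock transfer was 100 nL into about 40 µL; score is relative to mean and spread of the plate; one replicate is shown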
AID504770: growth inhibitors of E. coli YBA685 in a screen for V. cholerae RctB (chromosome II replication) inhibitors. z-score (test concentration not listed). E. coli YBA685 rctB-dependent plasmid, OD600 growth, 3 h; stronger effect = lower value. 130,000 compounds, 0.27% hits. AID 504770;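 active = z-score under -2 on both plates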;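 note: wells of about 30 µL received 100 nL stock; score is relative to mean and SD of the test wells; the first replicate is given; strong numbers were not always called active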
Numbers without * were called inactive; . = not tested or not shown.

SMILES	CapD inh	AID504770
Cc1cccc(OCCCC(=O)N2CCCCCC2)c1C	-0.29	0.1
C=CCSc1nnc(-c2ccc(C)cc2)o1	-0.225	0.1
Cn1cc2c(n1)-c1cc(Cl)ccc1SC2	-0.065	2.25
O=C(NC=C(Cl)Cl)c1ccccc1	0.27	-1.1
CC(=O)Nc1ccc(I)cc1C	0.32	.
CCN(CC)S(=O)(=O)c1ccc(NC2c3ccccc3C(=O)N2Cc2ccccc2)cc1 (centres undefined)	16.6	-1.15
CSc1sc(C(=O)Nc2cccc(Cl)c2)c(-c2cccs2)c1C#N	2.82	0.65
O=C(OCCOc1ccccc1)c1cc2c(s1)CCC2	.	-1.1
O=C(Nc1ccccc1F)c1ccc(N2CC3CC(C2)c2cccc(=O)n2C3)c(NC(=O)c2cccc(C(F)(F)F)c2)c1 (centres undefined)	0.565	.
O=S(=O)(c1cccc2nsnc12)N1CCCc2ccccc21	1.04	-1.2
Cc1ccccc1NS(=O)(=O)c1cc(-c2onc(C)c2C)ccc1C	0.06	-0.4
Cc1cc(Cl)ccc1OCCCC(N)=O	0.115	-0.3
CNC(=O)C1OC(C)(C(C)(C)C)OC1C(=O)NC (centres undefined)	-0.44	-0.25
CCc1ccc(-c2cc(C(=O)NCc3ccncc3)c3ccccc3n2)cc1	7.75	.
CS(=O)(=O)c1nnnn1-c1cccc2ccccc12	.	-0.65
Cc1ccc(C)c(Cc2cc(Cl)ccc2Cl)c1	0.01	-0.75
CCC1(C)NC(=O)N(/N=C/c2cc(C)n(-c3cccc(S(=O)(=O)N4CCOCC4)c3)c2C)C1=O (centres undefined)	.	1.05
CC1CCc2nc(SC3CC(=O)C4OCC3O4)nc(C(F)(F)F)c2C1 (centres undefined)	-0.15	1.1
CCOC(=O)/C=C(\C)N1N=C(/C=C/c2ccccc2)CC1c1ccccc1 (centres undefined)	2.49	.
CCN(CC)C(=O)CS(=O)(=O)Cc1nc(-c2cccc(OC)c2)oc1C	0.19	0.45
CC(C)C(=O)N(c1ccccc1)C1C=CS(=O)(=O)C1 (centres undefined)	0.41	-0.6
O=C(/C=C/c1ccc(Cl)cc1)NNC(=O)c1ccc(Cl)c(Cl)c1	4.94	.
CCOc1ccc(NC2=CC(=O)CCC2)cc1	82.1	-1
Cc1cccc(C(=O)NCC(=O)NN)c1	.	-0.95
COC(=O)c1ccc2c(=O)n(CCc3ccc(S(N)(=O)=O)cc3)c(SCc3cccc([N+](=O)[O-])c3)nc2c1	-0.045	.
Next part
SMILES	CapD inh	AID504770
Cc1cc(SCC(=O)Nc2oc(C)c3c(C)n[nH]c(=O)c23)nc2ccccc12	.	-0.3
CCSC1=NCCN1S(=O)(=O)c1ccc(NC(C)=O)cc1	-0.255	-0.45
NNc1nc(-c2ccco2)cc(C(F)(F)F)n1	-0.155	0.65
CC(C)(CO)C(O)C(=O)NC1CCCCC1 (centres undefined)	-0.27	2.85
COc1ccc(NC(C)=O)c(C(=O)O)c1	23.6	-0.75
Nc1ccc(C(=O)Nc2ccc3nc(-c4cccnc4)[nH]c3c2)cc1	4.45	-1.05
CC1C(c2ccccc2)OC(c2ccccc2O)N1C (centres undefined)	-0.295	-0.75
CN1CCN(S(=O)(=O)c2ccc3c(c2)oc(=O)c2cc(S(=O)(=O)N4CCN(C)CC4)ccc23)CC1	-0.275	-0.15
O=C(NC(NCC12CC3CC(CC(C3)C1)C2)(C(F)(F)F)C(F)(F)F)c1ccccc1	0.675	-0.05
CN(C(=O)C1=COCCO1)c1ccccc1	0.485	-0.45
COc1ccccc1NC(=O)CC1C(=O)NC2CCCCC2N1C(=O)C(F)(F)F (centres undefined)	-0.82	-0.85
CCOc1ccc(N2C(=O)/C(=C/c3ccc(N4CCCCC4)o3)C(=O)NC2=S)cc1	0.115	.
COc1ccc(-c2noc(N3CCCC(C(=O)N(C)c4cc(Cl)ccc4OC)C3)n2)cc1 (centres undefined)	0.545	-0.85
CC(C)(C)C(=O)n1cc(-c2ccncn2)c(-c2ccccc2)n1	3.9	.
O=C(NCCS(=O)(=O)Cc1cc2cccc3c2n(c1=O)CCC3)C1CC1	5.27	.
Cc1cccc(NC(=O)c2ccc(S(=O)(=O)N(C)c3ccccc3)cc2)n1	0.07	-1.1
Cn1c(C(F)(F)F)nc2ccccc21	-0.38	0.95
O=C(NCCN1CCCC1)Nc1ccccc1C(F)(F)F	13.5	1.2
CCOC(=O)c1sc(SC)c2c1CCCC2=O	-0.34	.
COc1ccc(OCCNC(=O)N2CCN(c3cnccn3)CC2)cc1	3.37	.
COc1ccc(C(=O)OCCN(C2=NS(=O)(=O)c3ccccc32)c2cccc(C)c2)c(OC)c1	0.105	.
FC(F)(F)c1cc(-c2ccccc2)n[nH]1	-0.275	.
CCOC(=O)c1c(C2CCN(C(=O)OCC)CC2)nc2ccccn12	-0.4	0.45
CCOC(=O)c1ccc(N2C(=N)S/C(=C\c3ccc(C)c([N+](=O)[O-])c3)C2=O)cc1	-0.625	.
CC1CC(C)CN(S(=O)(=O)N2CCCC(C(=O)NCCN3CCOCC3)C2)C1 (centres undefined)	-1.07	0.25

Another view of 6 compounds above.
Structure | CapD inh | AID504770
CCSC1=NCCN1S(=O)(=O)c1ccc(NC(C)=O)cc1 | -0.255 | -0.45
NNc1nc(-c2ccco2)cc(C(F)(F)F)n1 | -0.155 | 0.65
CC(C)(CO)C(O)C(=O)NC1CCCCC1 (centres undefined) | -0.27 | 2.85
COc1ccc(NC(C)=O)c(C(=O)O)c1 | 23.6 | -0.75
Nc1ccc(C(=O)Nc2ccc3nc(-c4cccnc4)[nH]c3c2)cc1 | 4.45 | -1.05
CC1C(c2ccccc2)OC(c2ccccc2O)N1C (centres undefined) | -0.295 | -0.75

Sorted by SMILES length (falling): part of the list above
SMILES	CapD inh	AID504770
CCC1(C)NC(=O)N(/N=C/c2cc(C)n(-c3cccc(S(=O)(=O)N4CCOCC4)c3)c2C)C1=O (centres undefined)	.	1.05
Cc1ccc(C)c(Cc2cc(Cl)ccc2Cl)c1	0.01	-0.75
CN(C(=O)C1=COCCO1)c1ccccc1	0.485	-0.45

The list goes on.
SMILES	CapD inh	AID504770
Cc1nn(C(C)C(=O)NC(C)CCc2ccccc2)c(=O)c2cc3sccc3n12 (centres undefined)	-0.47	-0.65
CC1=C/C(=N\NC(=O)COc2ccc(C#N)cc2)CC(C)(C)C1	.	0.5
COc1ccc(Cn2nnnc2CN2CCc3ccccc32)cc1	.	-0.35
CCC1c2ccc(C)n2CCN1C(=O)Nc1ccccc1Cl (centres undefined)	12.3	0.05
Cc1ccc(CNC(=O)Cn2sc3nc(C)cc(C)c3c2=O)cc1	2.12	-0.65
Cc1cc(SCc2ccc(F)cc2)c(C)cc1Cl	-0.07	1.8
Cc1ccc(S(=O)(=O)N2CC=C(C(=O)NCc3cccs3)CC2)cc1	0.345	-0.6
O=C(COC(=O)C1CCCCC1)c1ccc(Cl)s1	0.035	-0.5
Cc1ccc2c(c1)-c1c(cnn1CC(=O)NCCc1ccsc1)CO2	0.11	0
COc1ccc(Nc2nc3ccccc3nc2-c2ccccc2)cc1	-0.97	-1.05
CNC(=O)Nc1ccc(C(=O)NC)cc1	0.155	0.15
CC12CCC(C(=O)Nc3nccs3)(OC1=O)C2(C)C (centres undefined)	0.31	0.45
O=C(c1ccccc1)N1CCN(C(=O)c2nn3c(c2Br)NC(c2ccco2)CC3C(F)(F)F)CC1 (centres undefined)	-0.515	.
Cc1ccn2c(=O)cc(CNCC(c3ccc(F)cc3)N3CCOCC3)nc2c1 (centres undefined)	.	-0.6
COc1ccc(OC)c(/C=C/C(=O)NCCN2CCC(N(C)C3CCCCC3C)CC2)c1 (centres undefined)	21.1	-0.7
Cc1onc(-c2ccccc2Cl)c1NC(=O)Nc1cccc(Cl)c1Cl	0.065	.
CC(C)n1cc(C(=O)c2ccccc2O)cc1-c1nc2ccccc2c(=O)[nH]1	.	-0.85
CC(C)(C)OC(=O)C(CC(N)=O)NC(=O)OCCc1ccc(Cl)cc1 (centres undefined)	-0.235	.
CN(CCO)c1cc(N2CCC3(CC2)OCCO3)c2nonc2c1[N+](=O)[O-]	-2.34	.
O=C1COc2ccccc2N1Cc1ccccc1	-0.725	-0.2
COC(=O)Cc1nc(N2CCC(C)CC2)c2c3c(sc2n1)CCCC3	-0.7	-0.6
O=C(O)C1CCN(S(=O)(=O)c2ccc(C(F)(F)F)cc2)CC1	-0.54	0.2
CCNC(=S)NS(=O)(=O)c1ccccc1	-0.305	-0.5
COc1cccc(S(=O)(=O)NCC(=O)N2CCCCC2C)c1 (centres undefined)	0.205	0.65
CCOc1ccc(NC(=O)CN2C(=O)C3(OCCCO3)c3ccccc32)cc1	0.975	-0.1
Additional records:
SMILES	CapD inh	AID504770
O=C1CCC(=O)N1CCc1cnc[nH]1	0.475	.
O=C1c2ccccc2C(=O)N1CCN1CCCCC1	-0.37	-0.25
Cc1[nH]n(-c2ccccc2)c(=O)c1C=NCc1ccncc1	.	0.65
CCOC(=O)c1nc(Nc2ccccc2)c2ccccc2n1	-0.485	-0.9
O=C(CN1CCOCC1)Nc1ccccc1Oc1ccccc1	-0.065	0.4
O=c1[nH]cnc2c1cnn2-c1ccc(F)cc1	0.795	.
CN(C)c1ccc(NC(=O)CCCc2ccccc2)cc1	0.13	-0.65
COCCn1c(O)c(C=NCc2nc3ccccc3n2C)c(=O)[nH]c1=S	.	-0.15
Cc1ccccc1-c1c(C)oc2c(CN(C)C)c(O)ccc2c1=O	86	2.55
COC(=O)CSc1nnc(-c2ccncc2)n1-c1ccc(OC)cc1	0.285	-0.4
COC(=O)C(C)n1cnc2c(cnn2-c2ccccc2)c1=O (centres undefined)	-0.335	-0.5
O=C1c2cccc3cccc(c23)C(=O)N1CC1CCN(CC(O)COc2ccc(F)cc2)CC1 (centres undefined)	8.69	.
O=C(O)CCNC(=S)Nc1cccc(Cl)c1Cl	0.68	.
Cc1csc2c(NC(C)C)ncnc12	-0.015	0.15
COc1ccc(-n2ncc(C(=O)N3CCCCC3)c2C)cc1	0.605	-1.9
COc1ccc(Cl)cc1C(=O)Nc1ccc(F)cc1F	0.31	0.9
O=c1c2c(nc(NCCO)n1-c1ccccc1)-c1ccccc1CC21CCCCC1	74.5	-0.6
Cc1ccccc1CN(C)C(=O)[C@H](Cc1ccccc1)NC(=O)c1ccco1	.	0
COc1cccc2sc(NS(=O)(=O)CS(=O)(=O)Nc3nc4c(OC)cccc4s3)nc12	0.005	0.25
Cc1[nH]c2ccccc2c1C1CC(=O)NC1=O (centres undefined)	-0.075	-1.8
COc1ccc(N(CC(=O)Nc2ccc(Br)cc2)S(=O)(=O)c2ccccc2)c(OC)c1	0.005	.
O=C(O)[C@H](O)[C@@H](O)[C@H](O[C@@H]1O[C@H](CO)[C@H](O)[C@H](O)[C@H]1O)[C@H](O)CO	-0.495	.
CC(C)N(C(=O)Cn1ccc(=N)c2ccccc21)C(C)C	0.485	-0.35
CC(COC(=O)NNC(=O)c1ccc(Cl)cc1)c1ccccc1 (centres undefined)	-0.335	.
Cc1ccc(C2=NN(C(=O)CCC(=O)O)C(c3ccccc3F)C2)cc1 (centres undefined)	0.37	.
The results go on:
SMILES	CapD inh	AID504770
COc1ccc(OC)c(Nc2nnc(-c3cc4c(ccc5ccccc54)oc3=O)s2)c1	1.62	.
CCOC(=O)C1CCN(Cc2cccc(NC(=O)c3cccs3)c2)CC1	0.24	-0.75
COc1cccc(CCOC(=O)NCCC2CCCN2C)c1 (centres undefined)	-0.375	.
Nn1c(COc2ccccc2)nnc1SC(F)F	-0.14	-0.8
Cc1ccc(C2C(=O)N(C3CCCCCC3)CC(=O)N2C2CCCCC2)cc1 (centres undefined)	-1.13	-0.7
CC1(C)CC(=O)C2=C(C1)OC1=C(C(=O)CC(C)(C)C1)C2c1cccc(OCc2ccc(Cl)c(Cl)c2)c1	0.245	.
COc1ccc(-n2c(SCC(=O)NCCc3ccc(OC)c(OC)c3)nc3n[nH]c(C)c3c2=N)cc1	-0.025	.
COc1ccc(CCN(C(=O)c2cc(Cl)cc(Cl)c2)C2=CC3CCC(C2)N3C)cc1OC (centres undefined)	0.24	.
COc1ccc(S(=O)(=O)NCCN2CCOCC2)cc1-c1nnc2c3ccccc3c(C)nn12	-0.2	0.6
CC(=O)c1ccc(N2CCN(c3ncnc4c3cnn4-c3ccccc3)CC2)cc1	1.28	.
NC(=O)c1ccccc1Oc1ccc(Cl)cc1Cl	0.21	-0.5
COc1ccc(C2=N/C(=C/c3ccc(OC)c(OC)c3OC)C(=O)O2)cc1Br	-0.62	.
Cc1nc(-c2ccc(C(F)(F)F)cc2)sc1C(=O)NNC(=O)OCCN(Cc1ccccc1)Cc1ccccc1	3.71	.
CSc1ncc(C(=O)NCc2ccc(F)cc2)c(C(F)(F)F)n1	-0.97	-0.5
CNC(=O)Nc1ccc(C2SCCS2)cc1	0.8	-1.75
COc1ccc(-c2ccc(OC)cc2C#N)cc1	12.8	0.7
N#CCc1c(C#N)c(N)nc(NCc2ccccc2)c1C#N	.	0.7
COC(=O)c1ccc(C2c3c(oc4ccc(F)cc4c3=O)C(=O)N2CCCN(C)C)cc1 (centres undefined)	0.215	-1.4
Cc1cccc(C(C)C)c1NC(=O)CSc1ncnc2ccccc12	-1.02	-0.85
O=C1NS(=O)(=O)c2cc3c(cc21)C(=O)NS3(=O)=O	-0.27	.
S=C(NC1CCCCC1)N1CCCCC1	0.21	-0.45

4 compounds picked at random from the list so far:
SMILES	CapD inh	AID504770
COc1ccc(Cl)cc1C(=O)Nc1ccc(F)cc1F	0.31	0.9
CCOc1ccc(NC2=CC(=O)CCC2)cc1	82.1	-1
Cc1ccccc1NS(=O)(=O)c1cc(-c2onc(C)c2C)ccc1C	0.06	-0.4
COc1ccc(-c2ccc(OC)cc2C#N)cc1	12.8	0.7

Compound activity: PubChem, ICCB-Longwood Screening Facility, Harvard Medical School

Only part of the results is shown; the hit share may differ from the screen's.
